# Sa RN4220 lethal – S. aureus RN4220 growth inhibition; inhibition, % (test concentration not listed); AID 1259311; OD600, 16 h; actives 0.33% (n = 330,000);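 active means z-score of -3 or lower and OD600 up to 0.18 on both plates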;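 further: plate controls were untreated cells for no effect and reference antibiotic for full effect; stock transfer was 100 nL into about 80 µL; one replicate is shown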
# Sa ugtP lethal – kills S. aureus RN4220 lacking UgtP; S. aureus RN4220 ugtP deletion, OD600 growth, 16 h; some inactives read as strong as hits; growth inhibition, % (concentration not given with the values); actives 0.54% (n = 330,000);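 active means z-score under -3 and OD600 up to 0.15 on both plates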;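 further: plate controls were untreated wells for no effect and antibiotic for full effect; wells of about 80 µL received 100 nL stock; the first replicate is given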
# BJeLR viability – kills HRASV12-expressing BJeLR cells; BJeLR (HRASV12) viability, CellTiter-Glo ATP luminescence, 48 h; reference of the scale not given here; inhibition, % (test concentration not listed); actives 0.17% (n = 300,000);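 active means replicate mean above 50%; inconclusive means above 50% but judged a plate artefact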;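 further: 50 nL library stock added to about 25 µL; numbers are from one replicate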
# Bead autofluor – counter-screen for toxin protease inhibitors: compound fluorescence. compound autofluorescence counterscreen, microsphere flow cytometry; stronger effect = higher value. fluorescence intensity (test concentration not listed). actives 3.1% (n = 360,000). AID 624483;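 active means at least 3 SD above the mean of all compounds, about 16000 in these data; inconclusive means too few beads counted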;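 further: 100 nL of 1 mM stock went into each well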
# PrP 5UTR inh – inhibition of PrP 5' UTR reporter expression. actives 0.35% (n = 340,000). inhibition, % (concentration not given with the values). cell-based PrP 5' UTR mRNA reporter, plate reader;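 active means every replicate at 50% or more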;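 further: 0 = median of the neutral control wells; tested in H4 reporter cells; numbers are from one replicate; inactives centre near -14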
# Mtb hypoxia rep – Mtb hypoxia fluorescent reporter inhibition | M. tuberculosis hypoxia-regulated fluorescent reporter, fluorescence | fluorescence inhibition, % (no concentration beside the values) | actives 0.1% (n = 300,000);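 active means 35 to 45% if threefold the growth effect, above 45% if 1.5-fold the growth effect; inactive means the rest, general growth blockers included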;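 further: wells of about 50 µL received 100 nL stock; 0% = vehicle wells and 100% = reference inhibitor wells; whole bacteria with a GFP reporter of the hypoxia response; strong numbers were not always called active; many hits fall short of the cut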
# Mtb hypoxia rep growth – also measured in Mtb hypoxia rep; calls as there; growth inhibition, %; measured here: M. tuberculosis growth (absorbance);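 0% = vehicle and 100% = reference antibiotic; read after six days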
# * marks the source's active call; other numbers are inactive results; u = inconclusive; x = no result given; & = joins results of further samples.
SMILES,Sa RN4220 lethal,Sa ugtP lethal,BJeLR viability,Bead autofluor,PrP 5UTR inh,Mtb hypoxia rep,Mtb hypoxia rep growth
CC1(C)OC(C(O)(c2ccccc2)c2ccccc2)C(C(O)(c2ccccc2)c2ccccc2)O1 (stereo not drawn),10,-2,x,x,x,0,1
O=C(CCNC(=O)c1ccccc1Cl)NCC1COc2ccccc2O1 (stereo not drawn),2.4,3,x,u,-11,7,-6
O=C(CNC(=O)c1ccc(C(F)(F)F)cc1)NC1CC1,2.0,2,x,3806,-32,7,4
O=C(CCC(=O)N1CCOCC1)NCCc1ccc(Cl)cc1Cl,4.0,2,2,5792,-19,7,2
CCCCN1C(=S)NCC1c1ccccc1 (stereo not drawn),1.2,-2,x,x,x,2,-1
C=CCn1cc(-c2ccccc2)cc(C#N)c1=O,-13,-6,11,3309,-20,19,4
CN(C)Cc1c(C(=O)N/N=C/c2ccoc2)nnn1-c1nonc1N,x,x,-3,4683,-10,x,x
COc1cc(NS(=O)(=O)c2ccc3[nH]c(=O)[nH]c3c2)cc(OC)c1,2.5,1,3,4103,1,-7,-2
Cc1ccccc1N1CCN(Cc2nc(Cc3ccccc3F)no2)CC1,4.2,24,3,3914,-33,6,4
CN(CC(=O)Nc1cc([N+](=O)[O-])ccc1Cl)Cc1ccc(Br)cc1,-7.3,-22,-6,7024,-15,-4,7
NC(=O)N/N=C/c1ccccc1OC(=O)c1cc2ccccc2oc1=O,x,x,-6,4507,-28,x,x
O=C(Nc1ccccc1F)C1CCCN(S(=O)(=O)c2ccccc2)C1 (stereo not drawn),2.1,4,-1,2568,-19,-5,-4
C/C(=N\NC(=O)c1nc(C)cc(C)n1)c1ccccc1,x,x,-1,4840,-37,x,x
CCOc1ccc2nc(SCC(=O)NCC3CCCO3)c(C#N)cc2c1 (stereo not drawn),0.8,-1,-6,7172,-25,5,1
COCCC(=O)N1CCC(Oc2ccc(C(=O)NCc3cccc(C)n3)cc2)CC1,-2.3,-2,7,4728,-1,7,6

# The list goes on (three carried over from the part before).
SMILES,Sa RN4220 lethal,Sa ugtP lethal,BJeLR viability,Bead autofluor,PrP 5UTR inh,Mtb hypoxia rep,Mtb hypoxia rep growth
C/C(=N\NC(=O)c1nc(C)cc(C)n1)c1ccccc1,x,x,-1,4840,-37,x,x
CCOc1ccc2nc(SCC(=O)NCC3CCCO3)c(C#N)cc2c1 (stereo not drawn),0.8,-1,-6,7172,-25,5,1
COCCC(=O)N1CCC(Oc2ccc(C(=O)NCc3cccc(C)n3)cc2)CC1,-2.3,-2,7,4728,-1,7,6
Cc1ccc(C(=O)OCC(=O)NC2CC2)cc1S(=O)(=O)N1CCOCC1,3.4,4,x,3902,2,-8,6
CSc1nc(=S)n(-c2ccc([N+](=O)[O-])cc2)c(C)c1C(C)=O,7.5,7,-1,3836,-10,13,3
CSc1ccccc1NC(=S)NN=Cc1cccn1Cc1cccc(C)c1,3.3,2,x,x,x,2,5
CCOC(=O)c1cc(NC(=O)c2ccccc2)c(=O)oc1C(F)(F)F,3.5,1,x,4897,-76,0,4
COc1ccc(CCCc2nnc(SCC(=O)NN)o2)c(C)c1,3.8,6,5,3067,-28,4,9
CCOc1ccc(NC(=O)c2cc(S(=O)(=O)N3CCOCC3)cs2)cc1,2.0,3,-2,5659,-2,-13,-3
COCCn1c(CCC(=O)O)nc2c1c(=O)[nH]c(=O)n2CC(C)C,1.5,7,-4,4321,-18,4,9
CCSc1sccc1C1C(C#N)=C(N)N(c2cccnc2)C2=C1C(=O)CCC2 (stereo not drawn),2.6,7,-1,6439,-2,0,-1
Cn1c(NN)nc2sc3c(c2c1=O)CCC3,8.7,5,-3,3044,-17,10,4
Cc1ccc2c(CC(=O)OCc3nc(N)nc(Nc4ccccc4C)n3)coc2c1,2.8,-13,10,8722,-15,13,12
CC(C)Sc1nnc([C@@H](N)Cc2c[nH]c3ccccc23)o1,6.5,-5,-2,18809*,-17,-2,1
C[C@H](NC(=O)Nc1ccc2c(c1)OCCO2)C(=O)O,5.7,10,-1,11008,x,6,5
O=C(CNC(=O)c1cccc(F)c1)OCC(=O)N1CCN(C(=O)c2ccco2)CC1,0.4,-5,1,4891,-27,-7,-15
CC(C1CC1)N(C(=O)NC1CCS(=O)(=O)C1)c1ccccc1 (stereo not drawn),-4.3,3,-13,2230,-19,1,0
CCOC(=O)CCc1c(C)c(C#N)c2nc3ccccc3n2c1-n1ccnc1C,4.2,11,5,15435,-24,7,1
Cc1cnc(NS(=O)(=O)c2ccc(Cl)cc2)c(Br)c1,9.7,2,-2,4540,-45,-4,-5
CCc1ccc(-c2csc(NC(=O)C3=NN(c4ccccc4)C(=O)CC3)n2)cc1,-1.0,10,4,2375,-25,7,9
COc1nc(N)nc(CC(=O)C2CC2)n1,3.9,7,3,2453,-7,x,x
Cc1ccc(-n2[nH]c(C)c(C=Nc3ccc(S(=O)(=O)Nc4nc(C)cc(C)n4)cc3)c2=O)c(C)c1,3.0,19,-2,2823,3,6,-4
COC(=O)C1=C(C)N(Cc2ccccc2)C(=NCC2CC2)NC1c1ccccc1 (stereo not drawn),-0.5,-1,x,x,x,2,15
CCCOc1ccc(C(=O)C(CN2CCCC2)c2ccccc2)cc1 (stereo not drawn),15,58,14,2426,-34,14,9
C/C(=N\NC(=S)Nc1cc(S(=O)(=O)N2CCOCC2)ccc1Cl)c1ccc(N2CCOCC2)cc1,x,x,12,4558,-10,x,x
CN(CC(=O)NC1CCCc2ccccc21)S(=O)(=O)c1ccc2c(c1)c(=O)n(C)c(=O)n2C (stereo not drawn),-2.4,12,0,5714,-29,11,3
Cc1ccc(S(=O)(=O)NCC(=O)NCc2cc(=O)n(C)c(=O)n2C)cc1C,-1.7,-2,-2,5865,3,-10,2
CC(=O)c1c(N2CCN(c3ccc(F)cc3)CC2)nc(=S)n(-c2ccccc2)c1C,3.2,0,10,11815,-22,-3,-6
CCc1ccc(C(=O)NNc2cc(Cl)ccc2Cl)cc1,3.3,11,5,6852,-19,1,11
Nn1c(SCC(=O)N2CCOCC2)nnc1-c1ccc(Cl)cc1Cl,2.4,-3,11,8448,-34,4,6
O=C(CSc1cn(CCNC(=O)c2cccs2)c2ccccc12)NC1CCCCC1,18,12,-5,4089,-4,2,-2
Cc1ccc(NC(=O)c2cc(S(=O)(=O)N3CCOCC3)ccc2Cl)cc1S(=O)(=O)N1CCOCC1,5.8,5,x,4185,-15,7,7
CCCN(CCC)C(=O)CSc1ncccc1C(=O)O,3.1,3,8,9420,-12,6,-4
CCCc1cc(=O)oc2cc(C)cc(OC(C)C(=O)N[C@@H](Cc3c[nH]c4ccccc34)C(=O)O)c12 (stereo partly drawn),0.2,2,-2,5211,-18,x,x
CCN(C(=O)COC(=O)c1ccc(O)cc1O)c1c(N)n(Cc2ccccc2)c(=O)[nH]c1=O,2.1,1,x,8356,-13,2,-7
OC(COc1ccc(Cl)cc1)CN1CCN(c2cccc(Cl)c2)CC1 (stereo not drawn),-1.7,8,3,3384,-13,2,2
COc1ccc(S(=O)(=O)Nc2ccc(O)c(Sc3nc4ccccc4s3)c2)cc1,3.7,-3,-5,2508,-38,11,4
Cc1ccc(N2C(=O)c3n[nH]c(C)c3C2c2ccccn2)cc1 (stereo not drawn),2.0,4,6,8755,-9,2,2
Cc1ccc(S(=O)(=O)NCCC(=O)NC2CC2)cc1,2.7,4,12,4146,-18,11,-2
COc1ccc(OC)c(NC(=O)Cc2coc3ccc4ccccc4c23)c1,14,-9,3,2750,3,-4,8
CC(=O)NC1C(OCCOc2ccc(Cl)cc2Cl)OC(COC(C)=O)C(OC(C)=O)C1OC(C)=O (stereo not drawn),-1.4,-8,2,2719,-25&-24,x,x
COc1ccc(/C=C/C(=O)Nc2ccccc2C(=O)N2CCCC2)cc1,5.6,-3,-3,8637,-11,14,10
O=C(O)C1CCCN(S(=O)(=O)c2ccc(Br)s2)C1 (stereo not drawn),1.7,1,10,5113,-7,6,4
CC(=O)COc1c(-c2ccco2)oc2ccccc2c1=O,6.6,6,0,3682,-21,17,7
COC(=O)c1ccc(COc2cccc(OC)c2)o1,3.3,5,4,22471*,-15,1,1
COC(=O)[C@]1(C)N[C@H](c2ccc(-c3ccc(Cl)c(Cl)c3)cc2)[C@@H]2C(=O)N(C)C(=O)[C@@H]21,x,x,10,3750,-24,x,x
CCn1nc2cc(C(=O)NCC34CC5CC(CC(C5)C3)C4)ccc2c1OC,2.4,-1,-2,4311,0,6,-8
C=CC(C)Sc1nc2c(c(=O)n(C)c(=O)n2C)n1Cc1ccccc1Cl (stereo not drawn),-3.9,8,-4,5514,-15,3,7

# The closing 3 compounds of the part before lead into the next:
SMILES,Sa RN4220 lethal,Sa ugtP lethal,BJeLR viability,Bead autofluor,PrP 5UTR inh,Mtb hypoxia rep,Mtb hypoxia rep growth
COC(=O)[C@]1(C)N[C@H](c2ccc(-c3ccc(Cl)c(Cl)c3)cc2)[C@@H]2C(=O)N(C)C(=O)[C@@H]21,x,x,10,3750,-24,x,x
CCn1nc2cc(C(=O)NCC34CC5CC(CC(C5)C3)C4)ccc2c1OC,2.4,-1,-2,4311,0,6,-8
C=CC(C)Sc1nc2c(c(=O)n(C)c(=O)n2C)n1Cc1ccccc1Cl (stereo not drawn),-3.9,8,-4,5514,-15,3,7
CN(C)c1ccnc(-n2cccc2C=NO)c1C#N,4.7,2,x,x,x,1,6
Cc1nn(C)cc1C=NNC(=O)C(C)(C)Oc1ccc(Cl)cc1,1.7,3,x,x,x,4,5
COc1ccc(C=NNC(=O)c2ccc(C)cc2)cc1CN1CCN(c2ccc(F)cc2)CC1,4.7,-5,x,x,x,0,2
NCc1ccccc1CS(=O)(=O)N1CCOCC1,4.0,2,x,3814,3,4,9
N#Cc1cccc(CS(=O)(=O)c2ccc(Cl)cc2)c1,3.4,8,11,3576,-16,4,4
CC1=[N+](C)N(c2ccccc2)C(=O)C1N=C/C=C/c1ccccc1 (stereo not drawn),2.3,2,-11,3852,-68,2,1
O=C(/C=C/c1cccc([N+](=O)[O-])c1)Nc1cccc(NC(=O)c2ccco2)c1,12,-9,-1,6640,8,-1,6
COc1ccc(NC(=S)N2CCN(C(=O)c3ccco3)CC2)c(OC)c1,2.7,0,-5,2371,-11,7,-1
COc1cccc(N(C(=O)c2ccco2)C(C(=O)NC2CCCC2)c2cccnc2)c1 (stereo not drawn),-9.8,6,7,3092,-11,10,1
COc1cc(C(=O)OCC(=O)NC2CCCCC2)cc(OC)c1OC,2.9,-4,x,3652,-16,-26,4
Cc1ccccc1N=Nc1c(O)[nH]c2ccccc12,-4.4,-14,-7,5770,x,15,6
COc1ccc(NC(=O)c2cc(-c3ccccc3Cl)on2)cc1OC,3.8,-16,0,4301,-6,-6,-1
O=C(NCc1ccccc1)C1=C[C@@H](C2CC2)C[C@@H](OCc2ccc(CO)cc2)O1,x,x,-8,3598,-19,x,x
C/C(=N\NC(=O)Cc1ccc(Cl)cc1)c1ccccc1O,x,x,-4,3778,-11,x,x
O=C(CNC(=O)C12CC3CC(CC(C3)C1)C2)OCc1ccc(F)cc1Cl,2.1,-6,x,8375,-13,7,-2
CC(Nc1ccccc1)c1cc(Cl)ccc1O (stereo not drawn),-1.1,-6,x,2652,-23,x,x
Cc1cc(N(C)C)c(C#N)c(NCc2ccccc2)n1,-0.7,10,1,2516,-2,x,x
CCC(=O)Nc1cc(C(F)(F)F)ccc1N1CCOCC1,-0.4,-5,-3,4296,-9,x,x
O=C(Nc1ccc(Br)cn1)C1CCN(S(=O)(=O)c2cccs2)CC1,6.1,4,9,4352,-8,-16,2
CCOC(=O)N1CCN(CC(=O)Nc2cccc(Br)c2)CC1,7.1,-9,-11,3113,-9,-11,-4
CC(=O)c1ccc(S(=O)(=O)N2CCC(C(=O)Nc3ncc(C)s3)CC2)cc1,0.4,5,x,3943,-9,3,12
CSc1cccc(N2CC(C(=O)Nc3ccccc3N3CCCC3)CC2=O)c1 (stereo not drawn),3.6,-1,-1,5612,-9,-3,12
O=C(CNC(=O)c1cccs1)NCC(=O)OCc1ccc(Cl)cc1Cl,6.2,3,6,8666,-20,11,2
COc1cc(/C=C/C(=O)OCC(=O)Nc2c(C)n(C)n(-c3ccccc3)c2=O)cc(OC)c1OC,-2.0,-4,x,3094,-16,-3,0
CC(C)[C@H](NC(=O)NCc1ccc(Cl)cc1)C(=O)O,4.2,5,8,23334*,-17,-1,-1

# Bioassay records: PubChem BioAssay, several laboratories
